Screens: PubChem, Broad Institute
BJeLR viability – compounds reducing viability of BJeLR cells | BJeLR fibroblasts viability, CellTiterGlo ATP luminescence, 48 h; HRASV12, hTERT and SV40 LT/ST transformed | viability loss activity score, % (no concentration beside the values) | AID 2275 | 0.64% of 30,000 active; in the data active means viability loss activity score above about 50%; about a fifth of its hits are not listed in these tables;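 further: higher score means fewer live cells and less ATP luminescence; stock transfer was 50 or 100 nL into about 30 µL; 0% = vehicle wells and 100% = a reference killing control; one replicate is shown; the record names a cut of 85%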
A1 inh – blocks A1 activity | MEF A1-2A-BIM cells, caspase-Glo luminescence, 3 h; percent of clofoctol signal, DMSO as zero | caspase activation, % (test concentration not listed) | 0.51% of 21,000 active | AID 2241;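 active means most replicate scores above 10, or exactly half above 10 with mean activity above 10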;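 further: effector caspase 3 and 7 activity cleaving a DEVD luciferin substrate; 50 nL library stock added to about 30 µL; numbers are from one replicate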
The depositor's hits bear a star. A portion of the library. The share of hits here may be higher or lower than overall.

`C[C@@H]1CN([C@@H](C)CO)C(=O)c2cc(NS(=O)(=O)c3cn(C)cn3)ccc2O[C@@H]1CN(C)S(=O)(=O)c1cn(C)cn1` gave BJeLR viability -1.8 and A1 inh -0.2.
`COc1ccc(CN(C)C[C@@H]2Oc3ccc(NC(=O)Nc4ccc(C(F)(F)F)cc4)cc3C(=O)N([C@H](C)CO)C[C@@H]2C)cc1` gave BJeLR viability -4.8 and A1 inh -1.0.
`C[C@@H]1CN([C@@H](C)CO)C(=O)c2cccc(NC(=O)c3nc4ccccc4s3)c2O[C@H]1CN(C)C(=O)Nc1ccc(C(F)(F)F)cc1` gave BJeLR viability -3.5.
CC(C)NC(=O)Nc1cccc2c1O[C@H](CN(C)Cc1ccc(Cl)c(Cl)c1)[C@H](C)CN([C@@H](C)CO)C2=O was read as BJeLR viability -1.0.
Screening O=C(Nc1cccc(Cl)c1Cl)N1CCCN(Cc2ccc(F)cc2)CC1 returned BJeLR viability -4.2.
For C[C@H]1CN([C@@H](C)CO)C(=O)c2cc(NC(=O)Cc3ccccc3)ccc2O[C@H]1CN(C)Cc1ccc(C(=O)Nc2ccccc2N)cc1 the results were BJeLR viability 16.2.
For O=c1ccc2ccc(O)cc2o1 the results were BJeLR viability 3.5 and A1 inh 0.0.
Screening C[C@@H]1CN([C@@H](C)CO)C(=O)c2cc(NC(=O)c3ccncc3)ccc2O[C@@H]1CN(C)C(=O)NC1CCCCC1 returned BJeLR viability -1.3 and A1 inh -0.1.
CC(C)CCNC(=O)Cc1ccc(-n2c(=S)[nH]c3ccccc3c2=O)cc1 was read as BJeLR viability 2.1 and A1 inh -0.7.
`O=C(NC1CC1)c1cccc(C(F)(F)F)c1` gave BJeLR viability -3.5 and A1 inh -0.8.
`Cc1cc(C)c(C(=O)N2Cc3ccccc3NC2=S)c(C)c1` gave BJeLR viability -3.5 and A1 inh -0.3.
Screening C[C@H]1CN([C@@H](C)CO)C(=O)c2cc(NS(=O)(=O)c3cccs3)ccc2O[C@H]1CN(C)Cc1ccc(-c2ccccc2)cc1 returned BJeLR viability 7.2 and A1 inh -0.5.
Screening CCOC(=O)C1CCN(C(=O)c2n[nH]c(=O)c3ccccc23)CC1 returned BJeLR viability -1.8.
`CC(C)NC(=O)N(C)C[C@H]1Oc2ccc(NC(=O)CCC(F)(F)F)cc2C(=O)N([C@H](C)CO)C[C@@H]1C` gave BJeLR viability -2.3 and A1 inh 0.2.
For COC(=O)c1cc2oc(C)cc2n1CC(=O)c1ccccc1 the results were BJeLR viability 2.1 and A1 inh 0.4.
Screening CC(C)CC1NC(=O)C2CCCN2C1=O (centres undefined) returned BJeLR viability -6.6 and A1 inh 0.3.
For CCc1cc(C(N)=S)ccn1 the results were BJeLR viability 4.8 and A1 inh -0.2.
Screening COc1ccc(CNC(=S)NCCO)cc1 returned BJeLR viability -3.0.
C[C@@H]1CN([C@@H](C)CO)C(=O)c2cc(NC(=O)Nc3ccc(F)cc3)ccc2O[C@@H]1CN(C)C(=O)Nc1cccc2ccccc12 was read as BJeLR viability 3.9 and A1 inh -0.7.
Screening C[C@@H]1CN([C@@H](C)CO)C(=O)c2cccc(NS(=O)(=O)c3ccc(Cl)cc3)c2O[C@H]1CN(C)Cc1ccc(Cl)c(Cl)c1 returned BJeLR viability 1.3.
Screening CC(C)(C)c1cc(-c2nnc(-c3cccs3)o2)n(Cc2ccc(F)cc2)n1 returned BJeLR viability -1.4 and A1 inh -0.8.
S=C1SCN(CCN2CCOCC2)CN1Cc1ccccc1 was read as BJeLR viability 39.4 and A1 inh -0.4.
CCCc1cc(-n2cnc3ccccc32)n2c(nc3ccccc32)c1C#N was read as BJeLR viability -0.5 and A1 inh -0.3.
`CNC[C@@H]1Oc2ccc(NC(=O)Nc3cccc4ccccc34)cc2C(=O)N([C@@H](C)CO)C[C@@H]1C` gave BJeLR viability 0.4 and A1 inh 0.7.
Cc1occc(=O)c1CC=O was read as BJeLR viability -6.9 and A1 inh -0.2.
COc1ccc(NC(=O)Nc2ccc3c(c2)C(=O)N([C@@H](C)CO)C[C@H](C)[C@@H](CN(C)Cc2ccc(Cl)c(Cl)c2)O3)cc1 was read as BJeLR viability 0.5 and A1 inh -0.7.
O=S(=O)(CCSc1nccc(-c2ccc(Cl)cc2)n1)c1ccc(Cl)cc1 was read as BJeLR viability 0.7 and A1 inh 0.7.
`CC(C)NC(=O)N(C)C[C@H]1Oc2c(NC(=O)Nc3ccc(F)cc3)cccc2C(=O)N([C@H](C)CO)C[C@@H]1C` gave BJeLR viability 4.9.
`CC1(C)CC(=O)C(C(=S)Nc2ccccc2)=C(NCc2ccccc2)C1` gave BJeLR viability -5.2 and A1 inh -0.7.
CCN(CC)S(=O)(=O)c1ccc(NC(=O)c2cc(-c3cccs3)nc3ccccc23)cc1 was read as BJeLR viability 3.8.

5 successive compounds out of the list so far:
COc1ccc(NC(=O)Nc2ccc3c(c2)C(=O)N([C@@H](C)CO)C[C@H](C)[C@@H](CN(C)Cc2ccc(Cl)c(Cl)c2)O3)cc1 was read as BJeLR viability 0.5 and A1 inh -0.7.
O=S(=O)(CCSc1nccc(-c2ccc(Cl)cc2)n1)c1ccc(Cl)cc1 was read as BJeLR viability 0.7 and A1 inh 0.7.
`CC(C)NC(=O)N(C)C[C@H]1Oc2c(NC(=O)Nc3ccc(F)cc3)cccc2C(=O)N([C@H](C)CO)C[C@@H]1C` gave BJeLR viability 4.9.
`CC1(C)CC(=O)C(C(=S)Nc2ccccc2)=C(NCc2ccccc2)C1` gave BJeLR viability -5.2 and A1 inh -0.7.
CCN(CC)S(=O)(=O)c1ccc(NC(=O)c2cc(-c3cccs3)nc3ccccc23)cc1 was read as BJeLR viability 3.8.

Following part:
`C[C@@H]1CN([C@@H](C)CO)C(=O)c2cccc(N(C)C)c2O[C@@H]1CN(C)S(=O)(=O)c1cn(C)cn1` gave BJeLR viability -3.6.
For Cc1ccc(C)c(NC(=O)C2CCCN(C(=O)c3cnn(-c4ccccc4)c3-n3cccc3)C2)c1 (centres undefined) the results were BJeLR viability 0.5 and A1 inh 0.1.
NC1CCN(c2cccc(Cl)n2)CC1 was read as BJeLR viability -1.4 and A1 inh 0.8.
Screening CN(C)C(=O)N1CCC(C(=O)NCCC2=CCCCC2)CC1 returned BJeLR viability -1.6 and A1 inh -0.5.
CC(C)NC(=O)N(C)C[C@H]1Oc2ccc(NC(=O)C3CC3)cc2C(=O)N([C@@H](C)CO)C[C@@H]1C was read as BJeLR viability 4.3 and A1 inh 0.7.
C[C@@H]1CN([C@@H](C)CO)C(=O)c2cc(N(C)C)ccc2O[C@@H]1CN(C)C(=O)Nc1ccc(F)cc1 was read as BJeLR viability 3.0 and A1 inh 0.6.
Screening C[C@@H]1CN([C@@H](C)CO)C(=O)c2cc(NC(=O)Nc3ccc4c(c3)OCO4)ccc2O[C@@H]1CN(C)Cc1ccc(C(=O)O)cc1 returned BJeLR viability 2.8 and A1 inh 0.1.
For C[C@@H]1CN([C@H](C)CO)C(=O)c2cccc(NC(=O)Nc3ccccc3)c2O[C@@H]1CN(C)Cc1ccc(C(F)(F)F)cc1 the results were BJeLR viability 0.0.
Screening Cc1ccc(S(=O)(=O)NCCNc2nccc(C(F)(F)F)n2)cc1 returned BJeLR viability -2.2.
Screening Cc1cc2c(cc1S(N)(=O)=O)S(=O)(=O)CCC2 returned BJeLR viability 1.6 and A1 inh -0.6.
Screening COC(=O)CCC(=O)Nc1nccs1 returned BJeLR viability 1.0 and A1 inh -0.2.
`CC1CCN(S(=O)(=O)c2ccc3c(c2)c(=O)c(C(=O)N(C)Cc2ccccc2)cn3C)CC1` gave BJeLR viability -2.3.
For C[C@H]1CN([C@@H](C)CO)C(=O)c2cccc(NC(=O)c3ccc(-c4nccs4)cc3)c2O[C@@H]1CN(C)S(=O)(=O)c1ccc(Cl)cc1 the results were BJeLR viability -1.1.
`Cc1nn(-c2ccccc2)c2c1C(C(F)(F)F)(C(F)(F)F)N=C(N(C)C)O2` gave BJeLR viability 10.2 and A1 inh 0.4.
For C=C1C(=O)O[C@@H]2[C@H]3C(=C)[C@@H](O[C@@H]4O[C@H](CO)[C@@H](O)[C@H](O)[C@H]4O)C[C@H]3C(=C)C[C@@H](O)[C@@H]12 the results were BJeLR viability -2.4 and A1 inh 0.6.
Screening C[C@H](CO)N1C[C@H](C)[C@H](CN(C)S(=O)(=O)c2cn(C)cn2)Oc2ccc(NC(=O)NC3CCCCC3)cc2C1=O returned BJeLR viability 1.4 and A1 inh 0.1.
For CS(=O)(=O)N1CCC(Cc2ccccc2)CC1 the results were BJeLR viability 1.4 and A1 inh 0.5.
Screening CSc1nnc(-c2ccc(Cl)cc2Cl)n1Cc1ccco1 returned BJeLR viability 3.5 and A1 inh 0.8.
For CNC[C@@H]1Oc2ccc(NS(=O)(=O)c3ccc(F)cc3)cc2C(=O)N([C@@H](C)CO)C[C@@H]1C the results were BJeLR viability 0.1 and A1 inh -0.4.
CS(=O)(=O)C1=NN2C(=N)/C(=C\c3ccco3)C(=O)N=C2S1 was read as BJeLR viability 2.4.
`CS(=O)(=O)N1CCC(C(=O)NCCN2CCCCCC2)CC1` gave BJeLR viability 3.3 and A1 inh 0.9.
CC(C)NC(=O)Nc1cccc2c1O[C@H](CN(C)C(=O)NC(C)C)[C@H](C)CN([C@H](C)CO)C2=O was read as BJeLR viability 4.2.
`O=C(c1ccco1)N1CCN(C(=O)c2cc(-c3ccc(F)cc3)no2)CC1` gave BJeLR viability 1.2 and A1 inh 0.1.
For C[C@H](CO)N1C[C@H](C)[C@H](CN(C)C(=O)Nc2ccc(F)cc2)Oc2c(NC(=O)C3CCOCC3)cccc2C1=O the results were BJeLR viability -1.5.
For C[C@@H]1CN([C@@H](C)CO)C(=O)c2cc(NS(=O)(=O)c3ccc(F)cc3)ccc2O[C@H]1CN(C)Cc1ccncc1 the results were BJeLR viability 0.3 and A1 inh 0.0.
For C=C1C2CCC3[C@]4(C)CCC[C@@](C)(C(=O)O)C4CC[C@]3(C2)[C@H]1OC(C)=O (some centres undefined) the results were BJeLR viability 18.2 and A1 inh 0.1.
`CCN1CCN(CCCNC(=S)Nc2ccc3nc(N4CCN(C)CC4)cc(C)c3c2)CC1` gave BJeLR viability -2.4.
For CC(C)(C)C(=O)Cn1nnc(-c2cccc(C(F)(F)F)c2)n1 the results were BJeLR viability 1.7 and A1 inh 0.3.
COc1ccc(S(=O)(=O)Nc2ccc3c(c2)C(=O)N([C@H](C)CO)C[C@H](C)[C@@H](CN(C)Cc2ccc(C(F)(F)F)cc2)O3)cc1 was read as BJeLR viability 6.3 and A1 inh 0.3.
COc1cc(C2OCC3C(c4ccc5c(c4)OCO5)OC(=O)C23)ccc1O (centres undefined) was read as BJeLR viability -0.4 and A1 inh 0.2.

Next section, starting with the last 3 of the part before.
For CC(C)(C)C(=O)Cn1nnc(-c2cccc(C(F)(F)F)c2)n1 the results were BJeLR viability 1.7 and A1 inh 0.3.
COc1ccc(S(=O)(=O)Nc2ccc3c(c2)C(=O)N([C@H](C)CO)C[C@H](C)[C@@H](CN(C)Cc2ccc(C(F)(F)F)cc2)O3)cc1 was read as BJeLR viability 6.3 and A1 inh 0.3.
COc1cc(C2OCC3C(c4ccc5c(c4)OCO5)OC(=O)C23)ccc1O (centres undefined) was read as BJeLR viability -0.4 and A1 inh 0.2.
Screening COc1cc(C#N)c2ccc3ccccc3c2c1 returned BJeLR viability -1.2 and A1 inh 8.1.
Cc1noc(C)c1NC(=O)N(C)C[C@H]1Oc2ccc(NC(=O)Cn3cnnn3)cc2C(=O)N([C@@H](C)CO)C[C@@H]1C was read as BJeLR viability -3.1 and A1 inh 1.3.
C[C@@H]1CN([C@H](C)CO)C(=O)c2cccc(NS(=O)(=O)c3ccc(Cl)cc3)c2O[C@@H]1CN(C)C(=O)Nc1ccccc1 was read as BJeLR viability 3.6.
For Cc1ccc(OC(=O)C2c3ccccc3Oc3ccccc32)cc1C the results were BJeLR viability -2.4.
`C[C@@H]1CN([C@@H](C)CO)C(=O)c2cccc(N(C)C)c2O[C@@H]1CN(C)Cc1ccccc1` gave BJeLR viability -0.9.
C[C@H](CO)N1C[C@H](C)[C@@H](CN(C)C(=O)Nc2ccc(F)cc2)Oc2ccc(NC(=O)Nc3ccccc3)cc2C1=O was read as BJeLR viability -4.5 and A1 inh -0.9.
Screening C[C@H](CO)N1C[C@H](C)[C@H](CN(C)C(=O)Nc2ccc(C(F)(F)F)cc2)Oc2c(cccc2N(C)C)C1=O returned BJeLR viability 2.4.
C[C@@H]1CN([C@@H](C)CO)C(=O)c2cc(NS(=O)(=O)c3cccs3)ccc2O[C@@H]1CN(C)C was read as BJeLR viability 2.0 and A1 inh 0.0.
Cc1ccc(S(=O)(=O)Nc2ccc3c(c2)C(=O)N([C@H](C)CO)C[C@@H](C)[C@@H](CN(C)C(=O)NC2CCCCC2)O3)cc1 was read as BJeLR viability 2.3 and A1 inh 0.0.
For O=C(/C=C/c1ccccc1)Nc1cc2c(ccc3ccccc32)oc1=O the results were BJeLR viability 5.6 and A1 inh -0.1.
`C[C@H]1CN([C@@H](C)CO)C(=O)c2cccc(NS(=O)(=O)c3cccs3)c2O[C@@H]1CN(C)Cc1ccc(Cl)c(Cl)c1` gave BJeLR viability -1.1.
CC1CCN(C(=O)CN2N=C(c3ccccc3)CCC2=O)CC1 was read as BJeLR viability 3.3 and A1 inh 0.5.
Screening COc1ccc(S(=O)(=O)N(C)C[C@@H]2Oc3ccc(NC(=O)Nc4ccc5c(c4)OCO5)cc3C(=O)N([C@@H](C)CO)C[C@@H]2C)cc1 returned BJeLR viability 0.8 and A1 inh 0.8.
CC1CCC(NC(=O)Cn2ncn3c(cc4sccc43)c2=O)CC1 (centres undefined) was read as BJeLR viability -0.9 and A1 inh -0.2.
C[C@@H]1CN([C@H](C)CO)C(=O)c2cc(NC(=O)C3CC3)ccc2O[C@H]1CN(C)S(=O)(=O)c1cn(C)cn1 was read as BJeLR viability -0.4 and A1 inh -0.1.
